YopH PTP inh: YopH tyrosine phosphatase inhibitors, primary screen, biochemical, fluorescence Ex485/Em525; YopH tyrosine phosphatase [Yersinia enterocolitica]; inhibition, %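 (about 10 µM by stock and volumes)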; actives 0.16% (n = 140,000);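 active means inhibition of 50% or more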;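 further: controls were vehicle for no effect and minimum signal wells for full effect; inactives centre near -20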
Mtb growth: M. tuberculosis H37Rv growth inhibitors, H37Rv strain (AID 1626) | M. tuberculosis H37Rv growth inhibition; higher % means a stronger effect | actives 0.95% (n = 220,000) | one-dose inhibition, % at 10 µM; IC50 in µM for titrated hits;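 active means confirmed in a dose series; inconclusive means inhibition above 80% but not taken into the dose series; inactive means below 80% or under 30% at every dose of the series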;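 further: bacteria incubated seven days before Alamar blue readout; 0% = bacteria only wells and 100% = bacteria with antibiotic wells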
RecA intein inh: Mtb RecA intein splicing inhibitors, primary screen, biochemical, fluorescence, HTS; Protein RecA (Mycobacterium tuberculosis (strain ATCC 25618 / H37Rv)), P9WHJ3; cell-free RecA intein splicing; inhibition, %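 (about 9 µM by stock and volumes)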; actives 0.75% (n = 290,000); in the data active means inhibition above about 30%; inconclusive means no clear call, values can overlap the other calls;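 further: 0% = vehicle wells and 100% = reference inhibitor control wells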
Target sequence (P9WHJ3 whole entry, looked up): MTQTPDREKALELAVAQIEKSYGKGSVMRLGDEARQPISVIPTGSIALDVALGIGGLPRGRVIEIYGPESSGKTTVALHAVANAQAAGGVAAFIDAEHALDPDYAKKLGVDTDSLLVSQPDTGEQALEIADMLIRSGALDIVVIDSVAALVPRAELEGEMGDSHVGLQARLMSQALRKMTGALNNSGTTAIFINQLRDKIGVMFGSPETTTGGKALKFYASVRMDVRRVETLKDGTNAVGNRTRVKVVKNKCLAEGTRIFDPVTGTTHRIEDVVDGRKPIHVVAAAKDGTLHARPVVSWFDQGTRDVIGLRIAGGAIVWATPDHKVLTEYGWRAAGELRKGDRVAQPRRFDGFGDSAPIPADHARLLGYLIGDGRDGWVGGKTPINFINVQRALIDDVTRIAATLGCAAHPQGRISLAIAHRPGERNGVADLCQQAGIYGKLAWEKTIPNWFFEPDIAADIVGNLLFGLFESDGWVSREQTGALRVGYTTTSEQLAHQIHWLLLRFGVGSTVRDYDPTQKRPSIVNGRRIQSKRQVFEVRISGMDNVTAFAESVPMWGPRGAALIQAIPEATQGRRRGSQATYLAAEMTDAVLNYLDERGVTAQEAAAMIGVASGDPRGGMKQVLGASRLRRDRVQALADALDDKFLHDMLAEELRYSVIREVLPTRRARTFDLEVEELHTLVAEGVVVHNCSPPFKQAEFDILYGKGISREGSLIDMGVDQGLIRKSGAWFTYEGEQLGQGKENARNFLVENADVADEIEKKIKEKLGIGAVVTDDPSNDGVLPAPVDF
Arbovirus inh: antivirals against arbovirus infection, primary screen, cell-based, full library, 10K replicate subset | AID 1251, 2008 | actives 0.37% (n = 200,000) | inhibition, % at 10 µM | arbovirus infection cell-based antiviral screen;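 active means inhibition from about 30%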;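 further: bluetongue infection of BSR cells; cell survival read as ATP light after 72 h; 0% = infected wells without compound and 100% = uninfected wells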
Mtb bLac sens: beta-lactam sensitization of Mtb H37Rv, H37Rv. M. tuberculosis H37Rv growth with meropenem, percent inhibition; hits of this screen are not shown here. inhibition, % at 25 µM. actives 0.27% (n = 330,000);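 active means about 74% or more and at least 40 points above the plate without the antibiotic, then above 30% in a dose series; inconclusive means first-round hits that could not be retested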;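 further: growth measured after seven days incubation then overnight dye step; 0% = bacteria only wells and 100% = bacteria with antibiotic; twin plates without the antibiotic show which effects depend on it; some results filed as inactive read as strong as hits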
Arbovirus inh repeat: further read-out of Arbovirus inh, marked with its call; inhibition, %; measured here: 10K subset replicate screen; many hits read low in the repeat;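 first of two repeat runs on a subset; 0% = infected and 100% = uninfected wells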
* hit, by the source's call; ? = inconclusive; / = not tested or not shown. Some of the compounds tested (hit frequency here may not be typical).

SMILES	YopH PTP inh	Mtb growth	RecA intein inh	Arbovirus inh	Mtb bLac sens	others
CC(=O)c1cccc(NS(=O)(=O)N2CCCCC2)c1	-5	0%	-3.3	-6	-1
O=C(N/N=C/c1ccc2c(c1)OCO2)c1cc(-c2ccccc2Cl)nc2ccccc12	-17	5%	6.2	-7	1
COc1ccc(-c2nc3ccccn3c2CN2CCN(c3ccccc3F)CC2)cc1	/	3%	20	-23	96
O=C(N/N=C/c1sc2ccccc2c1O)c1ccccc1	-40	?	-11	-35	98
COc1ccc(C(=O)Nc2nc3cc4c(cc3s2)OCO4)c(OC)c1	/	-1%	0.5	/	3
CC(=O)c1ccccc1N(C(=O)Cn1nnc2ccccc21)C(C(=O)NCC1CCCO1)c1ccc(N2CCOCC2)cc1 (stereo not given)	/	-5%	-1.4	-7	4
O=C(Oc1ccccc1C(=O)N1CCOCC1)c1ccccc1	-2	0%	3.5	14	-10
C=CCn1cnc2scc(-c3ccc(CC)cc3)c2c1=O	11	9%	-0.6	3	9
CC(C)(C)c1ccc(C(=O)Nc2ccc(S(N)(=O)=O)cc2)cc1	/	3%	-1.0	/	45
Cc1ncc([N+](=O)[O-])n1CCOC(=O)c1ccc(Br)cc1	/	9%	1.1	3	5
O=C(Nc1nncs1)Oc1ccccc1	-46	-1%	0.9	9	-6
CN1c2ccc(Cl)cc2C(=O)NC1C1CC=CCC1 (stereo not given)	/	-6%	-80	/	-8
O=c1[nH]ncn1-c1ccccc1	/	0%	-1.0	4	-3
Clc1ccccc1/C=N/NC1=Nc2cccc3cccc1c23	-18	6%	-0.3	-33	-4
CN1CCCNc2nc3ccccc3nc21	/	-1%	-34	/	5
CC1CCN(C(=O)C2CCC(CNS(=O)(=O)c3cccc4cccnc34)CC2)CC1 (stereo not given)	-12	/	1.6	2	-4
Cc1ccc(N(C(=O)c2csnn2)C(C(=O)NC2CCCCC2)c2ccccn2)cc1C (stereo not given)	/	/	-0.1	/	2
CCN=C1SC(CC(=O)Nc2ccc3c(c2)OCO3)C(=O)N1CC (stereo not given)	/	7%	2.3	-1	1
CCOC(=O)c1c(C)[nH]c(C(=O)COC(=O)c2ccncc2)c1C	-38	3%	/	3	-2
Cc1cccc2nc(COc3ccc(Cl)c4cccnc34)cn12	/	7%	0.6	-1	-6
Nn1c(Nc2ccccc2)nc2ccccc21	-47	-11%	6.2	-1	0
COc1ccc(N(C)C(=O)CCS(=O)(=O)c2cccc3nonc23)cc1	-14	-3%	0.0	-2	10	Arbovirus inh repeat=0
CCc1ccc(C(=O)/C=C/NCc2ccc(F)cc2)cc1	-23	3%	-0.6	9	2
c1ccc2[nH]c(SCC3CCCCO3)nc2c1 (stereo not given)	/	3%	0.4	4	-2
COc1ccc(/C=N/n2cc(-c3ccccc3)nc2N)cc1	-15	5%	0.7	-17	85

Sorted by length of the SMILES (largest number first): part of the list above
SMILES	YopH PTP inh	Mtb growth	RecA intein inh	Arbovirus inh	Mtb bLac sens	others
COc1ccc(N(C)C(=O)CCS(=O)(=O)c2cccc3nonc23)cc1	-14	-3%	0.0	-2	10	Arbovirus inh repeat=0
CCN=C1SC(CC(=O)Nc2ccc3c(c2)OCO3)C(=O)N1CC (stereo not given)	/	7%	2.3	-1	1
Cc1cccc2nc(COc3ccc(Cl)c4cccnc34)cn12	/	7%	0.6	-1	-6
CN1c2ccc(Cl)cc2C(=O)NC1C1CC=CCC1 (stereo not given)	/	-6%	-80	/	-8

Next structures:
SMILES	YopH PTP inh	Mtb growth	RecA intein inh	Arbovirus inh	Mtb bLac sens	others
Cc1cc2sc(C(=O)O)c(C)c2s1	32	2%	4.8	6	-2
CC1Cc2nc(SCC(=O)NCc3ccco3)n(-c3ccccc3)c(=O)c2S1 (stereo not given)	-30	1%	4.0	12	-4	Arbovirus inh repeat=2
Cc1nc2ccccc2cc1C(=O)NCc1ccccc1	/	/	0.5	/	-8
CC(NC(=O)N(Cc1ccccc1)Cc1ccc2c(c1)OCO2)(C(F)(F)F)C(F)(F)F	-14	-5%	3.2	6	-4
C/C(=N\NC(=O)c1nnn(-c2nonc2N)c1CSc1ccccc1)c1ccc2c(c1)OCO2	/	/	-2.0	/	8
C(#CCN1CCOCC1)COC(c1ccccc1)c1ccccc1	30	2%	2.4	0	-4
COc1cc(OC)cc(C(=O)N[C@H](C(=O)NCCc2ccc(S(N)(=O)=O)cc2)C(C)C)c1	/	/	-0.3	/	7
O=c1c2ccccc2nc(-c2ccc(Cl)cc2Cl)n1-c1ccncc1	-27	-4%	-0.4	2	5
Cc1csc(SCC(=O)Nc2sccc2C#N)n1	/	-1%	3.1	1	1
O=C1c2ccccc2C(Nc2ccc(F)c(Cl)c2)N1c1ccccn1 (stereo not given)	-50	10%	-1.8	5	1
O=C(N/C(=C/c1cccs1)C(=O)N1CCOCC1)c1ccco1	-35	-5%	-5.0	2	4
COc1ccc(CCNC(=O)c2cc3c(=O)n4ccccc4nc3n(C3CCCCC3)c2=N)cc1	/	/	-27	/	91
COC(=O)c1cc(S(=O)(=O)NCCN2CCN(c3ccccc3F)CC2)c[nH]1	/	/	-2.8	/	-4
c1c2c(cc3sc(N4CCCCC4)nc13)OCO2	-52	/	-3.2	-7	11
COc1ccc2[nH]c(C(=O)N3CCN(C)CC3)c(C)c2c1	/	/	-4.6	/	-1
COc1ccccc1NC(=O)COc1ccc(C(=O)OCC(=O)N2CCCC2=O)cc1OC	-38	2%	-1.2	-12	-2
O=C(COc1ccc(Cl)cc1)Nc1cc(S(=O)(=O)N2CCCCC2)ccc1N1CCCCC1	-25	1%	-1.8	3	-1
CC(=O)Oc1cc2c3c(c1)/C(=C1/SC(=S)NC1=O)C(=O)N3C(C)(C)C=C2C	/	18%	0.2	/	20
Cc1oc(-c2ccc(Cl)cc2)nc1CSCC(=O)NC1CCN(Cc2ccccc2)CC1	/	/	3.1	/	-1
O=C(CN(Cc1ccc(F)cc1)C(=O)c1csnn1)NCc1ccc2c(c1)OCO2	/	/	-2.6	/	1
Cn1c(=O)c2c(nc3n2CCCN3CCc2ccccc2)n(C)c1=O	/	/	-1.3	/	0
CC(C(=O)NCC1CCCO1)N(C(=O)c1snc(C(N)=O)c1N)c1cccc(F)c1 (stereo not given)	-34	-7%	-4.0	3	-2
O=C(NCC(c1ccc(F)cc1)N1CCOCC1)c1ccccc1F (stereo not given)	/	-8%	0.3	/	-11
Cc1ccc(S(=O)(=O)Nc2cccnc2)c(C)c1C	/	/	0.5	/	-4
CCCCNc1ccc(C(CC(N)=O)NC(=O)Cc2cccc3ccccc23)cc1[N+](=O)[O-] (stereo not given)	/	-6%	-3.9	/	-10

Other records follow:
SMILES	YopH PTP inh	Mtb growth	RecA intein inh	Arbovirus inh	Mtb bLac sens	others
NNP(=O)(CC(=O)c1ccccc1)c1ccccc1 (stereo not given)	/	-1%	1.3	/	-14
CCOc1ccc(NS(=O)(=O)c2ccc(C)c(C(=O)NCCCn3ccnc3)c2)cc1	/	5%	1.9	2	-13
CCn1nc(C)c(CN2CCc3c([nH]c4ccccc34)C2c2ccc(F)c(OC)c2)c1C (stereo not given)	/	13%	-1.2	-14	5
COc1ccc(CNc2ccc3cn[nH]c3c2)c(OC)c1OC	-2	3%	46*	-9	15	Arbovirus inh repeat=-8
Cc1ccc(C)c(S(=O)(=O)NCc2ccc(C(=O)N3CCOCC3)cc2)c1	/	/	-0.6	/	-9
C=CCn1c(CSc2nc3ccccc3s2)nnc1SCC(=O)NCc1ccccc1	21	-5%	5.0	13	-7
CCOc1cc(N2CCOCC2)c(OCC)cc1NC(=O)Cc1ccccc1	/	-4%	-4.2	/	-3
CCCC(C)NC(=O)C1CCN(S(=O)(=O)c2ccccc2)CC1 (stereo not given)	-11	9%	6.0	6	6
O=C(CSc1nnc(-c2ccccc2Cl)o1)Nc1ccc2c(c1)OCCO2	-8	-6%	3.4	-8	-10
CN(CCC#N)C(=O)COC(=O)c1ccc2c(c1)C(=O)N(C1CCCCC1)C2=O	/	/	0.7	/	10
O=C(/C=C/c1ccc([N+](=O)[O-])cc1)c1ccco1	/	/	-0.6	/	84
O=C(CN1CCN(Cc2ccccc2)CC1)c1c[nH]c2ccccc12	-33	8%	2.1	-3	-3
Cc1cccc(CS(=O)(=O)Cc2ccc(C(=O)NCc3cccs3)o2)c1	/	-3%	-0.5	2	-7
O=S1(=O)NC(=NCc2ccccc2)c2ccccc21	-18	-5%	-2.4	1	-12
O=C(NCc1ccco1)C1CCCN1C(=O)Nc1cccc(Cl)c1 (stereo not given)	/	-8%	2.2	3	4
CCC(CC)NC(=O)c1n[nH]c(=O)c2ccccc12	-26	-13%	-1.3	1	0
Cc1cc(Cl)ccc1OCCCC(=O)NC1CCN(C)CC1	-37	-5%	3.2	-26	-9
CCCn1c(=O)[nH]c(=O)c2[nH]cnc21	-31	-11%	-1.3	0	2
CC(C)C1Nc2c(C(=O)O)cccc2C(Nc2ccccc2C(=O)O)C1(C)C (stereo not given)	/	4%	2.9	6	-1
CCCCN(C(=O)c1cccc(-n2cccc2)c1)c1c(N)n(CCC)c(=O)[nH]c1=O	/	/	0.1	/	-11
CC1O[C@@H](O[C@H](C)CC[C@@H](C)O)C(O)C[C@H]1O (stereo not given in full)	/	/	1.4	/	-9
CC(=O)NCc1ccc(S(=O)(=O)NC2CCN(Cc3ccccc3)CC2)cc1	/	1%	-1.3	/	-10
O=C(O)Cc1coc2ccc3ccccc3c12	/	0%	1.2	14	-5
CCCCC(=O)Nc1cc(C)c(NC(=O)c2cccs2)cn1	/	5%	0.0	-8	-6
O=S(=O)(Nc1ccc(-c2ccc(N3CCOCC3)nn2)cc1)c1cc(Cl)ccc1Cl	/	/	3.3	/	-3
COc1ccc(NC2CCCN(C(=O)CCc3cn[nH]c3)C2)cc1 (stereo not given)	/	/	-6.5	/	-1
CCn1c(SCc2ccc(C(=O)Nc3nccs3)cc2)nnc1-c1ccc(N)cc1	2	2%	-0.4	9	22
O=C(Nc1ccc(COc2ccccc2)cc1)Oc1ccccc1N1CCOCC1	/	-10%	-0.8	/	94

Among those listed so far, these have a cyano group.
SMILES	YopH PTP inh	Mtb growth	RecA intein inh	Arbovirus inh	Mtb bLac sens	others
Cc1csc(SCC(=O)Nc2sccc2C#N)n1	/	-1%	3.1	1	1
CN(CCC#N)C(=O)COC(=O)c1ccc2c(c1)C(=O)N(C1CCCCC1)C2=O	/	/	0.7	/	10

Already shown: entries from further up.
SMILES	YopH PTP inh	Mtb growth	RecA intein inh	Arbovirus inh	Mtb bLac sens	others
O=C(CN(Cc1ccc(F)cc1)C(=O)c1csnn1)NCc1ccc2c(c1)OCO2	/	/	-2.6	/	1
Cn1c(=O)c2c(nc3n2CCCN3CCc2ccccc2)n(C)c1=O	/	/	-1.3	/	0
CC(C(=O)NCC1CCCO1)N(C(=O)c1snc(C(N)=O)c1N)c1cccc(F)c1 (stereo not given)	-34	-7%	-4.0	3	-2
O=C(NCC(c1ccc(F)cc1)N1CCOCC1)c1ccccc1F (stereo not given)	/	-8%	0.3	/	-11

Looked up by structure from the list above (five):
SMILES	YopH PTP inh	Mtb growth	RecA intein inh	Arbovirus inh	Mtb bLac sens	others
CC1O[C@@H](O[C@H](C)CC[C@@H](C)O)C(O)C[C@H]1O (stereo not given in full)	/	/	1.4	/	-9
CC(=O)NCc1ccc(S(=O)(=O)NC2CCN(Cc3ccccc3)CC2)cc1	/	1%	-1.3	/	-10
O=C(CSc1nnc(-c2ccccc2Cl)o1)Nc1ccc2c(c1)OCCO2	-8	-6%	3.4	-8	-10
Cc1cc(Cl)ccc1OCCCC(=O)NC1CCN(C)CC1	-37	-5%	3.2	-26	-9
Cc1ccc(C)c(S(=O)(=O)NCc2ccc(C(=O)N3CCOCC3)cc2)c1	/	/	-0.6	/	-9
